Source: PubChem BioAssay
Six1-Eya2 blk – inhibitors of human Six1/Eya2 interaction; AlphaScreen GST-Six1/His-Eya2 binding, biochemical; stronger effect = lower value; control for the full effect not named in the record; hit rate 0.56% among 360,000; Q15475+O00167; activity change, % (test concentration not listed); in the data active = activity change below about -65%; inconclusive = about -30% to -65%; inactive = above about -30%; note: % is set by controls: 0 for no effect and ±100 for the full control effect; compound concentration not given in the record
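Six1/Eya2 binding was read as AlphaScreen signal after compounds were pinned into GST-Six1 plus His-tagged Eya2 (5X stock 250/500 nM) in pH 8.0 Tris/NaCl/TCEP buffer, beads added, then incubated 1 h, 37 C, dark.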
PINK1 expr mod – PINK1 expression modulation; hit rate 0.2% among 410,000; Potency, µM (titrated, usually from 76.6 µM), inactives show at the top dose activation (PINK1 increase), actives largely listed as activators; PINK1 immunofluorescence, high-content cytometry, 24 h; active = well fitted activation curve with a large enough effect; inconclusive = small, poorly fitted or top-dose-only effect; inactive = flat fitted curve, though single readings scatter; cell line not stated here;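 note: potency is the fitted concentration of half-maximal effect; % of control where 0% means no effect; nearly all actives have a fitted effect of over 65% in size; a mitochondrial uncoupler was the plate control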
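Measures PINK1 amount and localization on or inside mitochondria by immunofluorescence. Stable cells get compounds at 5 concentrations for 24 hours before fixation and staining; CCCP controls included.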
D2 PAM – positive allosteric modulators of human D2 dopamine receptor; P14416; DiscoveRx D2 beta-arrestin cells, luminescence, 90 min; 100% = 57 uM dopamine signal; potentiation, % (no concentration beside the values); hit rate 0.23% among 360,000; AID 624464; active = potentiation of 50% or more; inconclusive = 30% to 50%; inactive = 30% or less;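 note: compound concentration not given in the record; tested on top of an EC20 dose of dopamine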
Target sequence (P14416 whole entry, looked up): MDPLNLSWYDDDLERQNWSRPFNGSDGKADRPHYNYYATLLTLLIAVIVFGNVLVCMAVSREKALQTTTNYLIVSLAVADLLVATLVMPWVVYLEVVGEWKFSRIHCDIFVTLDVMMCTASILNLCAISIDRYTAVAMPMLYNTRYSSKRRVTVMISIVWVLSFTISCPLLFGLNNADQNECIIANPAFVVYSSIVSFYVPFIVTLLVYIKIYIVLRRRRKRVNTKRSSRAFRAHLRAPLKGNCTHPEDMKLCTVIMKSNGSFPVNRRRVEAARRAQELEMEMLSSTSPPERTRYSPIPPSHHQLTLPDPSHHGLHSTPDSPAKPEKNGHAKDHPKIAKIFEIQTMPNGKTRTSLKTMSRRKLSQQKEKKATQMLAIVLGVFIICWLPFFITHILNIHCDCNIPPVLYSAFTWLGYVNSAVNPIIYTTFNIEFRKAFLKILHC
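D2 cells co-treated with compound plus 50 nM dopamine (EC20) for 90 min at 37 deg C to detect potentiation. Beta-arrestin recruitment was read as enzyme-fragment luminescence after 1 h at ambient temperature. Full response was set by 57 uM dopamine.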
CtBP-E1A blk – blocks the CtBP interaction with E1A; AlphaScreen GST-E1A/His-CtBP binding, 1536-well; stronger effect = lower value; control for the full effect not named in the record; activity change, % (concentration not given with the values); hit rate 0.49% among 340,000; AID 651724; in the data active means activity change below about -65%; inconclusive means about -30% to -65%; inactive means above about -30%; note: % is set by controls: 0 for no effect and ±100 for the full control effect
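Homogeneous bead-based format: GST-tagged E1A captured on glutathione donor beads, His-tagged CtBP on nickel acceptor beads; compounds precede bead addition by 2 h at 37 °C.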
Sfp PPTase inh – blocks B. subtilis Sfp PPTase activity; Biochemical Sfp PPTase activity, qHTS; Potency, µM, for the others: max response, negative = inhibition, most hits filed as inhibitors; hit rate 3.5% among 310,000; AID 1490; active = well fitted inhibition curve with a large enough effect; inconclusive = small, poorly fitted or top-dose-only effect, or another doubt; inactive = no such curve, though single readings can be large or run the other way;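 note: the enzyme is Sfp with the accession as filed and its product quenches rhodamine fluorescence; potency is the fitted concentration of half-maximal effect; 0% = enzyme reaction without inhibitor and -100% = no enzyme wells; top concentration of the series not given in the record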
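Buffer: 50 mM Hepes-Na pH 7.6, 10 mM MgCl2, 0.01% Nonidet P-40, 0.01% BSA. Enzyme 15 nM, pre-exposed to compound 15 min; substrates then added and fluorescence change tracked over 30 min.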
TRPV1 potentiator – enhances activation of the human vanilloid receptor TRPV1; TRPV1-expressing cells, Fluo-8 calcium influx, capsaicin EC20 potentiation; host cell line not named in the record; control for the full effect not named in the record; hit rate 0.02% among 320,000; potentiation, % at 8.33 µM; Q8NER1; active means potentiation above 80%; inconclusive means 30% to 80%; inactive means below 30%; note: 0% is about no effect
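TRPV1-expressing cells were cultured overnight at 35.5C and loaded with Fluo-8 calcium dye for 40 to 90 min at room temperature. After a 10 s baseline, compound was added and calcium influx was read kinetically for 3 min (ex 480/em 520 nm).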
D2 ag – agonists of human D2 dopamine receptor (beta-arrestin); hit rate 0.084% among 360,000; P14416; activation, % (concentration not given with the values); DiscoveRx PathHunter D2 beta-arrestin, luminescence, 90 min; 100% = 57 uM dopamine signal; in the data active = activation above about 40%; inconclusive = about 15% to 40%; inactive = below about 15%; note: compound concentration not given in the record; the text of the record calls up to 30% inactive
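Agonist mode: compounds alone added to overnight-plated D2 PathHunter cells for 90 min at 37 C, with 57 uM final dopamine (EC100) defining full response. Beta-arrestin recruitment detected by chemiluminescent reagent, read after 1 h at ambient temperature.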
Starred values were filed as active, the others as inactive; ? = inconclusive; nt = no result given; & = joins results of further samples; [ ] = another dose, or the depositor's remark. The list is partial, so the mix of outcomes need not match the whole.

Sample of the layout, two compounds:
SMILES | Six1-Eya2 blk | PINK1 expr mod | D2 PAM | CtBP-E1A blk | Sfp PPTase inh | TRPV1 potentiator | D2 ag
O=C(Cc1ccccc1)N1CCN(CC2CC3C=CC2C3)CC1 (configuration not stated) | 0.3 | 0.0%[38.3 µM] | -17.0 | 8.5 | -16.8% | -4.2 | 0.2
c1ccc2oc(-c3ccc4c(c3)CNCc3cnnn3-4)cc2c1 | 6.7 | -0.6% | -5.9 | 0.4 | nt | nt | -3.7

All compounds of this part, previewed entries included:
SMILES | Six1-Eya2 blk | PINK1 expr mod | D2 PAM | CtBP-E1A blk | Sfp PPTase inh | TRPV1 potentiator | D2 ag
O=C(Cc1ccccc1)N1CCN(CC2CC3C=CC2C3)CC1 (configuration not stated) | 0.3 | 0.0%[38.3 µM] | -17.0 | 8.5 | -16.8% | -4.2 | 0.2
c1ccc2oc(-c3ccc4c(c3)CNCc3cnnn3-4)cc2c1 | 6.7 | -0.6% | -5.9 | 0.4 | nt | nt | -3.7
O=C1c2ccccc2-n2nnnc2C2c3ccccc3-n3nncc3CN12 (configuration not stated) | 0.7 | -0.1% | -0.7 | 5.0 | nt | nt | -4.9
Cc1ccc(NC2=NCCCS2)c(C)c1C | 2.5 | 0.8% | -3.2 | -0.3 | -3.9% | 13.7 | 3.8
CCCCCC1(C(C)C)C(=O)NC(=S)NC1=O | 4.5 | 2.5% | -16.7 | 0.6 | nt | nt | 4.3
C=CCNC(=S)N1Cc2cc(Br)ccc2-n2nncc2C1 | -0.1 | -0.8% | 0.4 | 2.0 | nt | nt | 2.6
CN1C(=O)C(=Cc2ccccc2OS(=O)(=O)c2ccccc2)C(=O)N(C)C1=O | -19.5 | 0.9% | -12.1 | 0.0 | 35.5µM* | -3.3 | 3.1
COc1cc2c3c(c1OC)Oc1ccc(cc1)C[C@H]1c4c(cc(OC)c(OC)c4Oc4ccc(cc4)C[C@@H]3N(C)CC2)CCN1C | -15.1 | 3.4% | -5.3 | -13.4 | nt | nt | -1.1
FC(F)(F)c1cccc(N2CCNCC2)c1 | nt | 1.7% | nt | nt | 4.1%&18.4% | 1.5 | nt
CCOC(=O)C(C)Oc1cc(C)cc2oc(=O)c3c(c12)CCCC3 (configuration not stated) | 1.7 | 0.9%[38.3 µM] | -9.5 | -24.0 | ? | -25.8 | -2.6
COc1ccc(OC(=O)N(C)C[C@@H]2OCc3cnnn3CCCC(=O)N([C@H](C)CO)C[C@@H]2C)cc1 | 4.5 | 1.4% | -2.2 | 2.6 | nt | nt | -6.9
COC(=O)C1=C(c2ccc(F)cc2OCc2ccccc2)C[C@@H]2CC[C@H]1N2C(=O)NCc1ccccc1OC | -4.1 | -1.2% | -15.0 | -5.9 | nt | -12.7 | -1.4
O=c1[nH]c(=O)n(Cc2ccc(F)cc2)c(O)c1C=NCC1CCCO1 (configuration not stated) | 0.3 | -0.9% | -1.4 | -0.3 | ? | 5.2 | -1.9
Cc1ccccc1-n1c(O)c(/C=N/N2CCOCC2)c(=O)[nH]c1=S | -1.0 | 1.6% | -19.8 | 1.1 | -25.8% | 23.6 | -0.8
Cc1c(CCN)ccc2c1[nH]c1ccccc12 | -5.6 | -2.2% | -30.8 | nt | ? | -5.7 | -8.9
O=c1[nH]c2ccccc2c(=O)n1-c1cccc(Cl)c1 | 8.0 | -0.1% | 9.0 | -0.4 | 20.5% | -1.6 | 0.9
Nc1ccc2c(c1)Cc1ccccc1-2 | -8.4 | 6.4% | -11.3 | 11.1 | 4.1% | 3.0 | -4.5
CCCCCn1c(=O)c(C(=O)NCc2ccccn2)c(O)c2ccccc21 | -0.8 | 1.8% | -11.8 | 5.3 | -7.5% | 9.3 | -2.0
CC(=O)OC1C(O)C(C)OC(OC2C(OC(=O)C3CCC4C(C3)OC3(CC(OC(=O)/C=C/c5ccccc5)C(C)CO3)C43CO3)OC(C)C(O)C2OC(C)=O)C1O (configuration not stated) | 0.0 | -6.9% | -13.2 | 5.9 | nt | nt | -1.7
CCOc1ccc(N=Cc2c(O)n(-c3ccc(C)c(C)c3)c(=O)[nH]c2=O)cc1 | 0.0 | 1.6% | -0.9 | 14.4 | -12.8% | -6.6 | -2.3
COCCNC(=O)Cn1cc(/C=C2\C(=O)NC(=O)N(c3ccccc3F)C2=O)c2ccccc21 | -2.6 | 4.7% | -4.5 | -1.2 | -0.4% | -5.6 | -2.4
C=CCOC(=O)C1C(C(=O)O)C2(Cl)C(Cl)=C(Cl)C1(Cl)C2(Cl)Cl (configuration not stated) | 12.7 | -1.5% | -6.9 | 0.0 | nt | nt | 1.9
COC(=O)C1=C(c2ccc(-c3ccccc3)c(F)c2)C[C@@H]2CC[C@H]1N2C(=O)NCCOc1ccc(OC)cc1 | -17.1 | 2.5% | -12.0 | -8.4 | nt | -3.0 | 3.9
C=CCN=C(SCC(=O)c1ccc(Cl)cc1)c1c(O)n(C)c(=O)n(C)c1=O | 4.5 | 0.2% | -12.3 | nt | -13.0% | 16.2 | 1.4
O=C(CCN1CCOCC1)NCC(=O)Nc1ccc(Br)cc1C(=O)c1ccccc1 | 0.2 | -0.4% | 16.5 | 4.9 | -4.0% | -1.6 | -3.3
COc1cc(/C=N/n2cnnc2)ccc1OC(=O)N(C)C | 3.0 | nt | 2.0 | 6.3 | 19.2% | -18.5 | -0.7
O=C(CCNC(=O)N1C[C@H]2C[C@@H](C1)c1cccc(=O)n1C2)Nc1ccc(F)cc1 | 2.6 | 0.8% | -22.9 | -0.7 | 9.2% | 16.2 | -5.9
Cc1ccc(Cl)cc1-n1c(O)c(C=NCCCN2CCOCC2)c(=O)[nH]c1=O | -0.9 | -1.6% | -7.4 | -1.0 | 7.0% | 2.9 | 0.0
O=C1CCCN1CC#CCN1CCCC1 | 3.1 | -0.3%&0.3% | -7.6 | 6.2 | 20.0%&11.3%&16.2%&-20.4% | 7.7 | 2.1
Nc1ccc(S(=O)(=O)N2CC3CC(C2)c2cccc(=O)n2C3)cc1 (configuration not stated) | -6.3 | 0.5% | -7.1 | -0.6 | 34.7%[activator] | 17.3 | -5.6

Only CtBP-E1A blk (2 entries from above):
SMILES,CtBP-E1A blk
c1ccc2oc(-c3ccc4c(c3)CNCc3cnnn3-4)cc2c1,0.4
O=C1c2ccccc2-n2nnnc2C2c3ccccc3-n3nncc3CN12 (configuration not stated),5.0

Next part.
SMILES | Six1-Eya2 blk | PINK1 expr mod | D2 PAM | CtBP-E1A blk | Sfp PPTase inh | TRPV1 potentiator | D2 ag
c1ccc(C2OCCN3CCCCC23)cc1 (configuration not stated) | -16.0 | 1.3% | -5.7 | -3.0 | 15.1% | 9.0 | -2.4
Cc1nn(Cc2ccccc2)c(C)c1C=C1C(=O)NC(=O)NC1=O | 23.5 | 6.5% | -5.2 | -4.1 | -28.3% | -6.3 | -2.5
CSc1ccc(C(=O)C2CCCN(C)C2)cc1 (configuration not stated) | -2.7 | -1.1% | -12.2 | 11.3 | 25.3% | -1.3 | 0.6
CNC(=O)Oc1ccc(-c2cn3cc(Cl)ccc3n2)cc1 | -18.3 | -1.7% | nt | -23.2 | 5.2% | -18.0 | 2.6
O=C1CN=C(c2cc([N+](=O)[O-])ccc2Cl)c2cc([N+](=O)[O-])ccc2N1 | 24.2 | 1.3% | 14.5 | 0.0 | nt | nt | 3.5
COc1cc(C2(C#N)CCN(C)CC2)cc(OC)c1OC | 3.1 | -2.9% | -6.7 | 1.6 | nt | nt | -2.9
CCOC(=O)[C@]12Cc3cc(C)ccc3[C@H]1N(C1CCCCC1)C(=O)c1ccccc12 | 1.9 | -1.1% | nt | 1.8 | nt | nt | nt
CSc1ncc(Cl)c(C(=O)O)n1 | -1.0 | 0.6% | -3.8 | 3.0 | 12.4% | -1.1 | -1.2
Cc1cc(C(=O)OCC(=O)Nc2ccc(F)cc2F)c(C)n1C1CC1 | -9.0 | 0.9% | -2.3 | -3.4 | nt | -2.5 | -2.5
Cc1nn(Cc2ccccc2)c(C)c1C(=O)NCc1ccccc1F | 12.3 | -0.4% | -3.5 | 5.3 | -0.4% | -4.7 | -5.4
O=C(O)c1ccc(N=Cc2c(O)[nH]c(=O)[nH]c2=O)cc1 | 2.8 | -2.3% | -4.0 | 2.6 | 17.5% | 10.5 | -4.6
COc1ccc(OC(=O)N(C)C[C@@H]2OCc3cnnn3CCCC(=O)N([C@@H](C)CO)C[C@H]2C)cc1 | 0.8 | 0.1% | 1.6 | 1.9 | nt | nt | -6.7
CCOP(=O)(OCC)/C(C#N)=C/c1ccoc1 | 19.1 | -1.1% | -0.7 | 5.9 | 6.9% | 10.0 | -4.7
CCN(CC)CCOC(=O)c1cc2cc(COC)ccc2o1 | 6.7 | -2.9% | -27.5 | 5.3 | 6.5% | -2.1 | 0.1
CCCCNC(=O)c1c(N)n(CCCOC)c2nc3ccccc3nc12 | 37.6 | -5.5%[38.3 µM] | -23.4 | -25.2 | -21.3% | -1.8 | -4.3
COc1ccc(NC(=O)N2CCC3(CC2)OCCO3)c(OC)c1 | 5.1 | -0.1% | -0.3 | 10.1 | -7.3% | 11.0 | -0.6
CN(C)P(=O)(C(Cl)=C(N1CCCCC1)N1CCCCC1)N(C)C | 2.4 | -4.3%[38.3 µM] | -5.4 | 8.2 | 13.8% | 23.3 | -2.5
COc1cccc(CC(=O)N(C)C2CCCN(Cc3ccccc3F)C2)c1 (configuration not stated) | -6.1 | -1.6% | -10.4 | -4.0 | -18.8% | 24.6 | -2.9
CC(=O)OC1CC(OC2C(O)CC(OC3C(O)CC(OC4CCC5(C)C(CCC6C5CC(O)C5(C)C(C7=CC(=O)OC7)CCC65O)C4)OC3C)OC2C)OC(C)C1OC1OC(CO)C(O)C(O)C1O (configuration not stated) | -4.2 | -0.9%&-1.2% | -0.4 | 5.7 | -4.8% | nt | -4.7
C#CCN1CCN(c2ccc(F)cc2)CC1 | -2.2 | 0.6% | -16.4 | 1.0 | 27.8% | 13.0 | -2.0
CCOC(=O)c1ccc(N2C(=O)CC(N3CCC(C#N)(c4ccccc4)CC3)C2=O)cc1 (configuration not stated) | -2.0 | -0.4% | -4.7 | -4.7 | 8.7% | nt | -1.9
COc1ccc(NC(=O)C2C3CCC(O3)C2C(=O)O)c(OC)c1 (configuration not stated) | 1.5 | 2.8% | -8.9 | -2.1 | -0.7% | -1.9 | -3.6
Nc1c(C(=O)NCc2ccco2)c2nc3ccccc3nc2n1CCN1CCOCC1 | ? | -23.4%[38.3 µM] | 0.8 | -73.3* | ? | 0.7 | -0.8
